# NPYLR7 agonist: mosquito NPYLR7 agonism | AID 1259423 | activation, % at 10 µM | hit rate 0.15% among 270,000 | HEK293T NPYLR7/Galpha15, GCaMP6s calcium fluorescence; in the data active means activation above about 40%;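 further: 0% = vehicle and 100% = reference agonist at the receptor; some compounds past the cut are filed as inactive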
# NPYLR7 agonist max-min: further read-out of NPYLR7 agonist, marked with its call; activation, %; measured here: Max-Min RFU normalised activation; some inactives read as strong as hits;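 span of the calcium signal over five minutes; 0% = vehicle and 100% = native peptide agonist; compound fluorescence can raise it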
# The depositor's hits bear a star; & = joins results of further samples. The list is partial; rates above refer to the full screens.
smiles	NPYLR7 agonist	NPYLR7 agonist max-min
CC(C)CN(CC(=O)Nc1cc(C(C)(C)C)nn1-c1ccc(Cl)cc1)C(=O)c1ccc2c(c1)OCO2	0	8
CCc1c(C)sc(N2C(=O)C3C4C=CC(C4)C3C2=O)c1C#N (centres undefined)	-8	-11
Cc1nnc(NC(=O)CSc2nc3ccccc3[nH]2)s1	-5	-9
COc1ccc(CCN(C)S(=O)(=O)c2ccc(OC)c(N3CCN(C(=O)c4ccccc4OC(F)(F)F)CC3)c2)cc1OC	24	11
CC(=O)c1ccc(N2CCN(S(=O)(=O)c3ccccc3C(F)(F)F)CC2)c(F)c1	3	1
O=S(=O)(c1ccccc1Cl)N1CCN(c2ccccc2F)CC1	6	1
CC(C)CN1CCNC(=O)C1CC(=O)N(C)CC1CCOCC1 (centres undefined)	16	4
COCCNC(=O)c1ccc(CSc2nc(C)c(C)c(N3CCN(C)CC3)n2)cc1	0	2

# Next section; it opens with the 2 that closed the last part.
smiles	NPYLR7 agonist	NPYLR7 agonist max-min
CC(C)CN1CCNC(=O)C1CC(=O)N(C)CC1CCOCC1 (centres undefined)	16	4
COCCNC(=O)c1ccc(CSc2nc(C)c(C)c(N3CCN(C)CC3)n2)cc1	0	2
Cc1nn(C)c(Oc2ccc(Cl)cc2)c1CN1CCn2cncc2C1	5	5
CCN1C(=O)N(CC(N)=O)C(=O)C12CCN(Cc1cccc(-c3ccccc3C)c1)CC2	10	0
Cc1csc(Sc2ccc(NC(=O)C3CCC3)c(C)c2)n1	-2	-5
CN(C)C(=O)C1CCCN1c1ccnc2ccsc12 (centres undefined)	2	2
CCC(=O)N1CCc2cc(C(=O)NC(C)c3ccccc3F)ccc21 (centres undefined)	-2	-2
O=C(NCCc1cccnc1)c1ccc2nc(-c3ccccc3)c(-c3ccccc3)nc2c1	-12	-16
O=C(c1cc(-c2ccc(F)cc2)nc2cc(-c3ccc(Cl)cc3)nn12)N1CCN(Cc2ccccc2)CC1	-6&12	-1&10
Cc1ccc(-c2cc(C(=O)N3CCN(c4cccc(C(F)(F)F)c4)CC3)n(-c3cccc([N+](=O)[O-])c3)n2)o1	2	6
Cc1cc(C(=O)N2C[C@H](Oc3ccccn3)[C@H]3C[C@@H]2Cc2c3[nH]c3ccccc23)no1	-9	-9
c1ccc(C2CCCN2Cc2cccc3nonc23)nc1 (centres undefined)	13	0
N#Cc1ccccc1NC(=O)CCN1CCC(n2cncn2)CC1	9	6
Cn1ccnc1C(O)(CC#N)C(F)(F)F (centres undefined)	3	1
COc1nc(N(C)C)nc(N(C#N)C(C)C(=O)N(C)C)n1 (centres undefined)	1	-1
Cn1c(=O)c2c(nc3n2CC(=O)N3c2ccc3c(c2)OCO3)n(C)c1=O	3	1
CCOC(=O)Cn1cc(/C=C2/C(=O)N(c3cccc(C(=O)O)c3)N=C2C)c2ccccc21	-6	-13
CCOC(=O)c1[nH]c(C)c(C(=O)N2CCCC(N3CCN(c4ccccc4)CC3)C2)c1C (centres undefined)	21	11
O=C(NC1CCCN(Cc2ccccc2F)C1)C1=CCCC1 (centres undefined)	-4	-6
CCn1ccnc1CN1CCCC(CNC(=O)C2(N)CCCC2)C1 (centres undefined)	12	9
Cc1c(Br)c([N+](=O)[O-])nn1CC(=O)NCC#N	-2	-8
Cc1ccn2c(NCc3ccccc3)c(-c3ccccc3OC(=O)C(C)(C)CCl)nc2c1	13	11
Cc1nn(-c2ccccc2)c(NC(=O)c2ccco2)c(-c2ccccc2Cl)c1=O	-5	-5
COCCNC(=O)C(NC(=O)c1ccccc1Cl)C1CCN(C(=O)CCc2ccccc2)CC1 (centres undefined)	3	6
CN(C)S(=O)(=O)c1ccc(N=Cc2c(O)n(C)c(=O)n(C)c2=O)cc1	-7	-14
Cc1ccc(Cl)cc1S(=O)(=O)Nc1ccc2c(c1)CCO2	7	2
CCCC(=O)Nc1cc(C(=O)N2CCC3(CCN(C)C3)CC2)ccc1C	6	4
S=c1[nH]nc(Cn2cncn2)n1Cc1ccc(Cl)cc1	-15	-19
CC(C)c1[nH]n(-c2ccc(Cl)c(Cl)c2)c(=O)c1C1=C(N(C)Cc2ccccc2)C(=O)N(c2ccccc2F)C1=O	8	12
Cc1ccccc1Oc1cc(N2CCN(Cc3ccccc3)CC2)ncn1	6	10
Cc1cn2c3c(=O)n(CCC(C)C)c(=O)n(C)c3nc2n1CC1CCCO1 (centres undefined)	2	3
Nc1ccc([N+](=O)[O-])cc1C(=O)OCC(=O)N1CCCCCCC1	-7	13
CC(C)C(NC(=O)N(C)Cc1cc(Cl)cn1C)c1ccccn1 (centres undefined)	0	2
O=C(Cc1noc2ccccc12)NCc1cc(-c2ccc3c(c2)OCCO3)on1	2	3
CN(C)CCNC(=O)CN1Cc2ccc(N3CCOCC3)nc2C1=O	13	25
O=C(Nc1ccccc1C(=O)N1CCN(Cc2ccccc2)CC1)c1ccccn1	3	0
CCc1nc2n(n1)C(=O)C(C(c1cccc(OC)c1)N1CCOCC1)S2 (centres undefined)	-4	-8
O=C(c1cn(Cc2ccccc2Cl)nn1)N1CCCCC1CCn1cccn1 (centres undefined)	3	1
O=C(Cn1nc2c(c1NC(=O)C1CC1)CSC2)NCC1CCCO1 (centres undefined)	-6	-4
O=C(C=Cc1cccs1)Nc1nc(-c2ccccn2)cs1	9	6
CC(=O)Nc1ccc(C(=O)NCc2nccc3ccccc23)cc1	6	5
O=C(NCCCCN1CCN(c2cccc(Cl)c2Cl)CC1)c1ccc2c(c1)Cc1ccccc1-2	-11	-16

# Compounds shown so far with a furan ring, fused or not:
smiles	NPYLR7 agonist	NPYLR7 agonist max-min
Cc1ccc(-c2cc(C(=O)N3CCN(c4cccc(C(F)(F)F)c4)CC3)n(-c3cccc([N+](=O)[O-])c3)n2)o1	2	6
Cc1nn(-c2ccccc2)c(NC(=O)c2ccco2)c(-c2ccccc2Cl)c1=O	-5	-5

# Next section:
smiles	NPYLR7 agonist	NPYLR7 agonist max-min
CC(C)Sc1nc2scc(-c3ccc(F)cc3)c2c(=O)[nH]1	1	3
CCC(NC(=O)c1cc(COc2ccc(F)c(F)c2)on1)c1ccncc1 (centres undefined)	4	0
C=CCN(Cc1ccc(C)s1)C(=O)C1CCN(C(=O)CC(C)C)CC1	4	21
CCCCCCCC(=O)Nc1c(-c2cccc(OC)c2)nc2ccccn12	-11	-10
CCOC(=O)N1CCN(C(=O)c2cc(-c3ccccc3OC)n3nc(C(C)(C)C)cc3n2)CC1	8	5
CCOCCCN(CC(=O)N(Cc1ccc2c(c1)OCO2)Cc1sccc1C)C(=O)Nc1cccc(Cl)c1	-21	-29
Oc1[nH]c2ccccc2c1N=Nc1ccc(F)cc1F	-1	-7
O=C(c1coc(COc2ccc(F)cc2Cl)n1)N1C[C@H]2CC[C@H]1C2	6	-6
O=c1oc2ccc(Br)cc2cc1-c1csc(Nc2ccccc2)n1	0	-4
COc1ccc2c(c1)-c1sc(C(=O)N3CCc4ccccc4C3)cc1CC2	-2	11
O=c1c2c3c(sc2n2cnnc2n1-c1ccccc1)CCCCC3	14	4
CNc1nc(-c2ccc(CO)cc2)cn2ccnc12	-2	-3
Cn1cnnc1SCC(=O)Nc1ccc2c(c1)CCC2	4	-1
Cc1cnn(C2CCCc3ccccc32)c1NC(=O)CCc1cccnc1 (centres undefined)	1	3
COc1ccc(-n2nnc(C(=O)Nc3cc(C)on3)c2C)cc1	3	-6
CCc1nc2ccc(C(=O)NCCN3CCNC3=O)cn2c1N(CC)CCOC	1	-2
CCc1cc(C(=O)OC)c(NC(=S)NC(C)c2ccncc2)s1 (centres undefined)	-13	-19
O=C(Cn1[nH]c(=O)ccc1=O)N1CCCCC1CCc1ccccn1 (centres undefined)	1	0
Cc1nn(CC(=O)N2CCCc3ccccc32)c(=O)c2c1cnn2-c1ccccc1	4	-1
CC1CN(c2ccc(NS(=O)(=O)c3ccc(C(N)=O)cc3)cc2F)CC(C)O1 (centres undefined)	-3	-5
O=C(CC1CCOC1)NCC1SCCc2ccccc21 (centres undefined)	4	2
O=C(Nc1ccc(Cl)c(Cl)c1)N1CCc2nc(Cc3cccc(F)c3)nc(N3CCOCC3)c2C1	1	8
Cc1nc(SCC(=O)Nc2cccc3ccccc23)c2c(=O)n(C)c(=O)n(C)c2n1	7	10
Cc1nc(N2CCC(C(O)CC(C)C)CC2)c2ccsc2n1 (centres undefined)	-2	-6
N#Cc1cccc(-c2ncnn2Cc2cc(=O)n3ccsc3n2)c1	2	0
O=C(c1coc(CN(Cc2cccc(C(F)(F)F)c2)Cc2cccs2)n1)N1CCOCC1	-1	3
O=C(NC1CCSc2ccccc21)C1c2ccccc2Oc2ccccc21 (centres undefined)	-3	-4
CCc1nc2ccc(C(=O)N3CCCCC3)cn2c1N(CC)C(C)=O	-6	-11
Cc1nn(CC(C)C)c(Cl)c1CNC1CCc2ncnn2C1 (centres undefined)	7	2
COCCN(CCOC)C(=O)CCCCC1CCSS1 (centres undefined)	1	2
CCc1n[nH]c(=O)c(C(=O)NCC(C)Oc2ccc(Cl)cc2)c1CC (centres undefined)	8	6
COC(=O)[C@H](Cc1ccccc1)NC(=O)c1cc(Cl)sc1Cl	-1	-3
CN(Cc1ccccc1)C1(C(=O)NC2CCC(O)CC2)Cc2ccccc2C1 (centres undefined)	18	4
CCOC(=O)C1CCN(C(=O)c2cc(-c3ccc(C)cc3)nc3cc(C(C)(C)C)nn23)CC1	13	6
CCc1nc(NCC(C)C)c(C#N)c2c1COC(C)(C)C2	2	-1
CCCCCCn1c(N2CCCCC2)nc2c1c(=O)n(C)c(=O)n2C	15	6
Cc1cccc2sc(N(CCCN3CCOCC3)C(=O)c3ccc(S(C)(=O)=O)cc3)nc12	0	-5
CC1Nc2ncnn2C(c2ccccc2)C1C(=O)Nc1ccccc1 (centres undefined)	-5	-5
COc1ccccc1OCC(=O)N=Nc1c(O)n(C)c2c(C)cc([N+](=O)[O-])cc12	1	-3
Clc1cc(Cl)c(OCCCCn2cncn2)c(Cl)c1	0	-9
COc1ccc(C(=O)N2C(C(=O)N3CCOCC3)COC23CCN(C(=O)c2ccccc2C)CC3)cc1 (centres undefined)	-1	3
CCC(=O)Nc1cc2c(cc1OC)NC(=O)CC2c1ccccc1C(F)(F)F (centres undefined)	5	2
CC(=O)Nc1ccc(N2C(=O)C3CC=CCC3C2=O)cc1 (centres undefined)	-13	-18
CC(C)CCC(C)NC(=O)Nc1ccc(S(C)=O)c(F)c1 (centres undefined)	-2	24
Cc1nnsc1C(=O)N1CCC(CCC(=O)Nc2ccc3c(c2)OCCO3)CC1	4	0
COc1cccc(/C=N\n2cnnc2)c1OCC#N	19	21
Cc1cc(C(=O)N2CCCCC2c2nc(C)no2)c2ccc(F)cc2n1 (centres undefined)	9	7
Fc1ccccc1-c1n[nH]c(=S)n1C1CC1	9	6
COc1ccccc1-c1nnc2ccc(OCCNS(=O)(=O)c3ccccc3)nn12	-3	-4
CCOC(=O)N1CCN(C2CCCN(C(=O)c3csc4c3CCCC4)C2)CC1 (centres undefined)	-2	-5
CN1CCCc2cc(CCNC(=O)C34CC5CC(CC(C5)C3)C4)ccc21	9	4
CC1(C)COC(CCOC(=O)N2CCC3(CC2)C(=O)NCN3c2ccccc2)OC1	-7	-14
CN(C)CCN1CCN(c2ccn3nccc3n2)CC1	1	-1
Cc1[nH]n2c(=O)cc(C(C)(C)C)nc2c1-c1ccc(Cl)cc1	15	13
CC(C)=CCN(C)Cc1cc(-c2ccncc2)no1	2	0
N#CCC(=O)NCC1CCCO1 (centres undefined)	1	-1

# Of the compounds above, these have a tert-butyl group:
smiles	NPYLR7 agonist	NPYLR7 agonist max-min
CC(C)CN(CC(=O)Nc1cc(C(C)(C)C)nn1-c1ccc(Cl)cc1)C(=O)c1ccc2c(c1)OCO2	0	8
CCOC(=O)N1CCN(C(=O)c2cc(-c3ccccc3OC)n3nc(C(C)(C)C)cc3n2)CC1	8	5
CCOC(=O)C1CCN(C(=O)c2cc(-c3ccc(C)cc3)nc3cc(C(C)(C)C)nn23)CC1	13	6
Cc1[nH]n2c(=O)cc(C(C)(C)C)nc2c1-c1ccc(Cl)cc1	15	13

# Carrying on:
smiles	NPYLR7 agonist	NPYLR7 agonist max-min
CC(C(=O)NCc1cnn2ccccc12)n1cnc2ccccc21 (centres undefined)	-2	-5
Cn1ncnc1CNC(=O)c1nn(-c2ccc(F)cc2)cc1O	6	6
COc1ccc([N+](=O)[O-])cc1NC(=O)c1ccnn1C	1	-3
CC1CCC2(CC1)OCC(C(=O)NCc1cccnc1)N2C(=O)c1cc(F)cc(F)c1 (centres undefined)	-5	11
COc1cc(Br)c(S(=O)(=O)N2CCc3ccccc3C2)cc1OC	1	-3
COCCNC(=O)c1c(N)n(/N=C\c2cccc(OC)c2OC)c2nc3ccccc3nc12	10	1
Cc1ccc(-c2csc(NC(=O)CCc3nc4ccccc4[nH]3)n2)s1	-3	-4
O=S(=O)(NCc1nnnn1C1CCCCC1)c1cccc(Cl)c1	29	15
CNc1ncc(CN(C)C(=O)c2cnn3ccn(C)c23)cn1	-2	13
COc1ccc(NC(=O)CCC2CCCN(C(=O)CC3=CCCCC3)C2)c(C)c1 (centres undefined)	-6	-7
O=C(N[C@H](Cc1ccccc1)C(=O)N1CCC(C(=O)N2CCCCC2)CC1)C1CC1	-1	2
O=C(NNC(=O)C12CC3CC(CC(C3)C1)C2)c1cc(Br)ccc1F	0	-2
O=C(C1=CC=CN2CCS(=O)(=O)N=C12)N1CCN(c2ccccn2)CC1	8	10
CC1(C(=O)O)CCC(C(=O)Nc2nc3ccccc3s2)C1(C)C (centres undefined)	8	10
Clc1ccc(-n2ncc3c2CCN(Cc2cc4c(cc2Cl)OCO4)C3)cc1	0	22
COc1cc(C)c(S(=O)(=O)N2CCN(c3cccc(C)c3C)CC2)cc1C	-5	-9

# Screens from PubChem.
